Source: PubChem BioAssay (National Center for Advancing Translational Sciences (NCATS))
gsp agonist – qHTS for Agonist of gsp, the Etiologic Mutation Responsible for Fibrous Dysplasia/McCune-Albright Syndrome: qHTS. gsp mutant cells, cAMP HTRF, 30 min; control for the full effect not named in the record. Potency, µM (top dose mostly 76.9 µM), for the others: top-dose activation (cAMP increase), most hits filed as activators. AID 624287, 2012. hit rate 0.13% among 340,000; active = well fitted activation curve with a large enough effect; inconclusive = small, poorly fitted or top-dose-only effect, or another doubt; inactive = no such curve, though single readings can be large or run the other way; cell line not stated here;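 also: phosphodiesterase inhibitor Ro 20-1724 added with compounds to block cAMP breakdown; potency is read from the fitted curve at half-maximal effect; nearly all actives have a fitted effect of over 60% in size; about a fifth of the inactives were tested at one dose only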
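Cells in DMEM/10% FBS with G418 were pretreated with compounds in DMSO plus […] (300 uM stock) for 30 min at 37C. cAMP was measured by HTRF (cAMP-d2 plus anti-cAMP antibody-K) after 30 min at room temperature.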
Sfp PPTase inh – qHTS Assay for Inhibitors of Bacillus subtilis Sfp phosphopantetheinyl transferase (PPTase); 4'-phosphopantetheinyl transferase ffp (Bacillus subtilis), Q9F4F7; Biochemical Sfp PPTase activity, qHTS; Potency, µM, for the others: max response, negative = inhibition, most hits filed as inhibitors; hit rate 3.5% among 310,000; AID 1490, 2009; active = well fitted inhibition curve with a large enough effect; inconclusive = small, poorly fitted or top-dose-only effect, or another doubt; inactive = no such curve, though single readings can be large or run the other way;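 also: the enzyme is Sfp with the accession as filed and its product quenches rhodamine fluorescence; potency is read from the fitted curve at half-maximal effect; 0% = enzyme reaction without inhibitor and -100% = no enzyme wells; top concentration of the series not given in the record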
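Compounds were incubated with enzyme (final 15 nM) for 15 min at room temperature before substrate addition started the reaction. Fluorescence at 525 nm excitation, 598 nm emission was recorded immediately and after 30 minutes.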
ClpP mod – qHTS Assay for Activators of ClpP | hit rate 1.9% among 340,000 | purified B. subtilis ClpP, FRET peptide cleavage, 20 min | AID 651965, 2013 | Potency, µM (highest dose often 57.5 µM), for the others: at the highest dose activity change, negative = active; active = well fitted falling curve with a large enough effect; inconclusive = small, poorly fitted or top-dose-only effect; inactive = no such curve, though single readings can be large or run the other way; also: potency is read from the fitted curve at half-maximal effect; the source files actives as falling curves though it sought activators and does not explain the sign; nearly all actives have a fitted effect of over 65% in size; many hits overshoot -100%
Target sequence (P80244 whole entry, looked up): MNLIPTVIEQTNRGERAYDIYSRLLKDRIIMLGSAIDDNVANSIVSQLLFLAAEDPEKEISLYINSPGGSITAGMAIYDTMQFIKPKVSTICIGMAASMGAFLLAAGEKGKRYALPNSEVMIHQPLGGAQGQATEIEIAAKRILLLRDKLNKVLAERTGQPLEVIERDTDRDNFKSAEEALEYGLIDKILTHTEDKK
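Purified B. subtilis ClpP, 10 microg/mL final in Tris/HCl pH8 with KCl, BSA, glycerol and Tween-20, cleaved an Abz/nitrotyrosine-quenched decapeptide. Fluorescence (ex 320, em 430) was read at 0 and 20 min at room temperature. Delta was normalized to 5.8 microM ADEP and DMSO/no-enzyme controls.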
gsp antagonist – qHTS for Antagonists of gsp, the Etiologic Mutation Responsible for Fibrous Dysplasia/McCune-Albright Syndrome: qHTS; hit rate 0.4% among 340,000; gsp-mutant cells, cAMP HTRF, 30 min; control for the full effect not named in the record; Potency, µM (titrated, usually from 76.9 µM), for the others: top-dose activity change, negative = inhibition, usual class: inhibitors; active = falling curve of any shape with a large fitted effect; inconclusive = falling curve, mostly with a smaller effect; inactive = flat or rising curve; cell line not stated here;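 also: intracellular cAMP measured with PDE inhibitor Ro 20-1724 present during compound exposure; potency is read from the fitted curve at half-maximal effect; % is scaled to controls: 0 for no effect and ±100 for the full control effect; nearly all actives have a fitted effect of over 65% in size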
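G418-selected cells were plated in DMEM/10% FBS for 16-24 h at 37C, then treated with compounds plus the PDE inhibitor […] (300 uM solution added) for 30 min at 37C. Intracellular cAMP was measured by HTRF after 30 min lysis at room temperature.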
D2 PAM – Beta-Arrestin HTS for Positive Allosteric Modulators of the Human D2 Dopamine Receptor: Potentiators; potentiation, % (no concentration beside the values); DiscoveRx D2 beta-arrestin cells, luminescence, 90 min; 100% = 57 uM dopamine signal; AID 624464, 2012; D(2) dopamine receptor (Homo sapiens), P14416; hit rate 0.23% among 360,000; active = potentiation of 50% or more; inconclusive = 30% to 50%; inactive = 30% or less;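 also: compound concentration not given in the record; tested on top of an EC20 dose of dopamine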
Target sequence (P14416 whole entry, looked up): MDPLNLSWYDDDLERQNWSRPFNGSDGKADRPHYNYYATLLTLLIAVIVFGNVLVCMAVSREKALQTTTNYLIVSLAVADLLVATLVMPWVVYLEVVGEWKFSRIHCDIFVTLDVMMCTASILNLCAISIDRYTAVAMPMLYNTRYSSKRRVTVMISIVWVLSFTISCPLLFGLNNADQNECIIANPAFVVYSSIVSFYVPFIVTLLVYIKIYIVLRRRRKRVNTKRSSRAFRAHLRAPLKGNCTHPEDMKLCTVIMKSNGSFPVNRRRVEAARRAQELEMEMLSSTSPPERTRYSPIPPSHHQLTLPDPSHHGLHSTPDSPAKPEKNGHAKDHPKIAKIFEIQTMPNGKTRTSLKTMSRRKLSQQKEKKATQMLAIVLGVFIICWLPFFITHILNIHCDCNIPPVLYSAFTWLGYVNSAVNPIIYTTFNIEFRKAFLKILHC
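PathHunter beta-arrestin assay in DiscoveRx D2 cells. Compounds were added with an EC20 of dopamine (50 nM final) for 90 min at 37 deg C. Luminescence was read 1 h after detection reagent, with 57 uM dopamine as the EC100 control.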
Menin-MLL FL inh – qHTS Assay for Inhibitors Targeting the Menin-MLL Interaction in MLL Related Leukemias: Competition With Fluorescein Labeled MLL-derived Peptide; Fluorescence polarization, fluorescein-MLL peptide displacement from menin; FP activity change, % at 61.4 µM; 290,000 tested, under 10 active; inconclusive = falling polarisation curve, or a change in total fluorescence; inactive = total fluorescence flat and polarisation flat or rising; no compound was filed as active; the % refers to the polarisation; negative = inhibition;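 also: % of control where 0% means no effect; inhibitors lower the polarisation; unlabelled MLL peptide was the positive control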
TRPV1 potentiator – HTS Assay for Compounds that Act as Potentiators of the Vanilloid Receptor 1. Transient receptor potential cation channel subfamily V member 1 (Homo sapiens), Q8NER1. TRPV1-expressing cells, Fluo-8 calcium influx, capsaicin EC20 potentiation; host cell line not named in the record; control for the full effect not named in the record. potentiation, % at 8.33 µM. hit rate 0.02% among 320,000. AID 540277, 2011; active means potentiation above 80%; inconclusive means 30% to 80%; inactive means below 30%; also: 0% is about no effect
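Cells expressing TRPV1 were dye-loaded with Fluo-8 and read kinetically: 10 s baseline, 3 min after compound (agonist portion), then 2 min after EC20 capsaicin (allosteric enhancer portion). Calcium-bound dye fluorescence at 480/520 nm.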
Active calls of the source: *; u = inconclusive; x = not tested or not shown; & = joins results of further samples; [ ] = another dose, or the depositor's remark.

SMILES | gsp agonist | Sfp PPTase inh | ClpP mod | gsp antagonist | D2 PAM | Menin-MLL FL inh | TRPV1 potentiator
COc1ccc(S(=O)(=O)N(Cc2ccccc2)c2ccccc2C(=O)Nc2ccccc2C(=O)NCc2ccco2)cc1 | 1% | 11% | 22µM* | -4% | -8 | 3.4 | 12
O=C(O)c1ccc2c(c1)C(=O)N(N1C(=O)c3ccccc3C1=O)C2=O | -11% | -4% | -2.5% | 6% | 3 | 1.7 | 2
O=C(c1ccc(=O)[nH]c1)N1CCN(S(=O)(=O)c2cc(C(F)(F)F)ccc2Cl)CC1 | -5%[15.4 µM] | 10% | -0.7% | 9% | -6 | 0.1 | -3
CC(NC(=O)CCc1nnc(CCCc2ccccc2)o1)c1ccccc1 (stereo unspecified) | 18%[15.4 µM] | 2% | x | 1% | -1 | 1.4 | 9
O=C(NCc1ccccc1C(F)(F)F)C1CCC(=O)N(C2CC2)C1 (stereo unspecified) | -2% | 8% | -1.0% | 8% | -10 | -0.8 | -8
Cc1ccc(S(=O)(=O)NC(=O)NC(=O)N(C)S(=O)(=O)c2ccc(C)cc2)cc1 | 24% | 13% | 1.8% | 5% | -3 | 0.6 | -1
Cc1c(C(=O)NCc2ccc3c(c2)OCO3)cccc1[N+](=O)[O-] | -3%[15.4 µM] | 11% | x | 9% | -8 | 1.9 | 5
CCCCN(CCCC)CCNC(=O)c1cn(C)c2ccc(S(=O)(=O)N3CCCC3)cc2c1=O | u | 2% | -2.2%&-0.3% | 8% | -14 | x | -3
O=C(NCCn1ccc2ccccc21)c1ccc(S(=O)(=O)N2CCCCC2)cc1 | 20% | 24% | 0.6% | -6% | -5 | -1.6 | -13
Cc1ccc(C)c(CN2C(=O)COc3ccccc32)c1 | -2%[15.4 µM] | -3% | -0.5% | -26% | -19 | -6.0 | 19
CCOC(=O)C(C)Sc1nnc(CNC(=O)c2ccc(OC)cc2)n1C1CCCCC1 (stereo unspecified) | 2% | 13% | 4.9% | -19% | -10 | -0.2 | 0
O=C(CSC1=NCCS1)Nc1ccnc2ccccc12 | -39%[inhibitor] | 1% | -0.4% | u | -12 | 4.4 | 18
CCC(=O)NCCCCCCNC(=O)CC | -4% | 19% | 0.5% | -5% | -16 | 6.4 | -1
O=C(C[C@H]1C/C=C\C[C@@H](Cc2ccc(F)cc2)C(=O)OC[C@H]2CCCN2C1=O)NCCO | x | x | 3.0% | 6% | 3 | x | x
COc1cccc(NC(=O)CSc2nc(C)cs2)c1 | -19% | 1% | 0.3% | 11% | -2 | -0.9 | 4
Cc1ccc(Nc2nc3c([nH]2)c(=O)[nH]c(=O)n3C)cc1 | -6% | 2% | -1.1% | -1% | -10 | 2.8 | 1
CC(=O)N1c2ccc(S(=O)(=O)NCCC(=O)N3CCC(C)CC3)cc2CC1C (stereo unspecified) | 32% | 12% | -3.4% | 6% | -9 | 4.1 | -8
CCOC(=O)c1cccc(NS(=O)(=O)Cc2ccccc2)c1 | -53%[inhibitor] | 19% | x | -3% | 0 | 2.6 | -1
COc1ccc(C(=O)NC2CCN(CC(=O)N3CCCCC3)CC2)cc1 | 23% | -9% | x | 12% | -15 | -5.7 | -5
Cc1cc(C)c(C)c(S(=O)(=O)NC2CCCCC2)c1C | 25% | 17% | 0.0% | -3% | 10 | x | -4
COc1ccc(C(=O)CSC2=NS(=O)(=O)c3cc(Cl)ccc3N2)cc1 | -19%[15.4 µM] | x | x | -22% | 1 | x | 27
CCOc1ccccc1NC(=S)Nc1ncccc1C | -16% | u | -2.8% | -21% | -12 | 4.6 | -15
Cc1c(C(=O)OCC(O)=C(C#N)c2nc3ccccc3[nH]2)oc2ccc(Br)cc12 | u | x | x | 1% | -1 | x | x
CC1CCCC(C)N1C(=O)CN1c2cccc3cccc(c23)S1(=O)=O (stereo unspecified) | 28% | x | -12% | 9% | 1 | x | x
O=C(CN1CCN(S(=O)(=O)c2ccccc2)CC1)NC(=O)NCc1ccccc1 | -41%[inhibitor] | 11% | -0.8% | -22% | 3 | -1.6 | -6
CC(C)N1CCN(Cc2ccc(-c3ccccc3Cl)o2)CC1CCO (stereo unspecified) | -4% | 4% | 1.5% | 11% | -18 | 1.9 | -1
CCN(C(=O)C1=COCCO1)c1nc2c(C)cccc2s1 | 3%[15.4 µM] | x | x | -4% | 0 | x | 8
COC(=O)N/N=C/c1cc([N+](=O)[O-])cc(Br)c1O | 1% | 20% | 1.6% | -9% | -30 | 6.9 | 1
Cn1c(=NC(=O)CS(=O)(=O)c2ccccc2)sc2ccccc21 | -31%[inhibitor] | x | -1.9% | -3% | -3 | x | 7
O=C1C(=O)N(c2ccccc2)c2ccccc21 | -26% | 24% | -1.3% | 5% | -55 | 8.7 | 0
CC1CCN(C(=O)CNC(=O)c2ccc(Cl)cc2Cl)CC1 | -22% | 17% | -1.6% | 12% | 2 | -1.2 | -4
COc1ccc(CSC2=C(C#N)C(=O)NC3(CCCCC3)S2)cc1 | -33%[inhibitor] | x | 1.3% | x | -7 | x | x
Cc1cc(C)cc(NC(=O)N2CCN(S(C)(=O)=O)CC2)c1 | -5%[15.4 µM] | 15% | x | 18% | -5 | -0.7 | -12
Cc1ccc(SCc2ccc(C(=O)Nc3ccccc3C(=O)NC(C)C)cc2)cc1 | -5%[15.4 µM] | u | -1.9% | 3% | -6 | 3.5 | 3
Cn1nc(C(F)(F)F)c(CO)c1Sc1ccc(F)cc1 | -3%[15.4 µM] | 10% | x | 11% | -8 | 0.5 | 14
CC1CCCC(C)N1C(=O)c1cccc2c1-c1ccccc1/C2=N/O (stereo unspecified) | -33%[inhibitor] | -3% | 1.9% | 12% | -9 | 1.7 | 18
O=C(NC1CC1)C(=O)c1c(-c2ccccc2)[nH]c2ccccc12 | -14% | 13% | -1.8% | 0% | -8 | 1.8 | 2
Cc1ccc(CNc2ncnc3cc(Cl)ccc23)cc1 | 2% | 2% | -4.7% | -14% | -10 | 2.6 | -20
CCCc1nc2oc3c(=O)[nH]cnc3c2c2c1COC(C)(C)C2 | u | 6% | 4.0% | -22% | 1 | -1.9 | 11
COc1ccc(-c2[nH]ncc2CN2CCC(N3CCSCC3)CC2)c(F)c1 | 4%[15.4 µM] | 6% | x | 7% | -8 | 0.8 | -1
O=C1C=C(Nc2cccc(Cl)c2)CC(c2ccco2)C1 (stereo unspecified) | -5% | 17% | -17% | -7% | -29 | 3.8 | -18
O=C(N/N=C/c1cccc(Cl)c1)c1c(O)c2c([nH]c1=O)CCCC2 | 0%[15.4 µM] | -14% | x | 1% | 2 | 2.9 | 9
Cc1ccc([N+](=O)[O-])cc1NC(=O)c1ccc(C(C)(C)C)cc1 | -34%[inhibitor] | 4% | -0.3% | -31% | -11 | -0.4 | -9
COc1ccc(/C=C/c2nnc(NC(=O)CC(C)C)s2)cc1 | 11%[15.4 µM] | 19% | x | 2% | 0 | 0.6 | -4
Cc1nc2nc(C)c(CCC(=O)N3CCOCC3)c(C)n2n1 | 12% | 9% | -0.2% | 17% | 7 | -1.1 | -2
CCCN(CC(=O)Nc1cc(Cl)cc(Cl)c1)CC(=O)Nc1ccc(F)c(F)c1F | -4%[15.4 µM] | u | -3.8% | u | -6 | -1.8 | 2
Clc1cc(Cl)c(Cl)c(Cl)c1Cl | x | x | 0.1% | 10% | 6 | x | -5
O=C(O)c1cccnc1Br | 3% | 19% | -0.2% | 7% | -6 | 0.3 | -25
CCc1cccc(C)c1NC(=O)CSc1nc2ccccc2n1CC(=O)N(C)C | -41%[inhibitor] | 17% | -4.2% | 0% | -20 | -0.7 | 3
O=C(O)CC(C(=O)O)C(c1ccccc1)c1ccccc1 (stereo unspecified) | 8% | x | x | -1% | -5 | x | x
CCNC(=S)NNC(=O)CSc1nc2ccccc2[nH]1 | 19%[15.4 µM] | 13% | x | -1% | -28 | 4.1 | 2
CC1c2ccsc2CCN1S(=O)(=O)c1ccccc1 (stereo unspecified) | -1%[15.4 µM] | -1% | x | 14% | -3 | 4.9 | -18
Cc1cc(O)c2c(C)c(CC(=O)N3CCN(C(=O)C4COc5ccccc5O4)CC3)c(=O)oc2c1 (stereo unspecified) | u | 13% | u | -18% | 0 | 3.9 | 2
S=C(Nc1ccccc1)N1CCn2c(nc3ccccc32)C1 | -19% | 23% | x | 3% | -1 | -0.9 | 29
S=c1[nH]nc(C2CC2)n1Cc1ccco1 | -2% | -16% | 0.6% | 1% | -13 | -0.8 | -4
Cc1ccc(NC(=O)c2cccc(C(F)(F)F)c2)cc1NC(=O)c1[nH]cnc1C(N)=O | u | x | -19% | 9% | -1 | x | -3
O=C(NCCc1csc(-c2cccnc2)n1)c1ccccc1 | -37%[inhibitor] | 12% | -19%&-27% | 5% | 2 | 2.2 | -3
CC(=NO)c1ccc2c(c1)C(=NO)c1ccccc1-2 | 0% | x | -14% | -5% | 83* | x | x
O=C1CSC(=Nc2ccccc2[N+](=O)[O-])N1 | -7%[15.4 µM] | 20% | x | 0% | -14 | -11 | 5
O=c1cc(-c2ccccc2)nc(SCCOc2ccccc2Cl)[nH]1 | 2% | 15% | -0.8% | 6% | 1 | -1.6 | 4
CC(=O)c1nn(-c2ccc(Cl)cc2)c(=O)[nH]c1=O | -22% | 6% | -5.3% | -1% | -1 | 7.9 | -3
CC1(C)NC(=O)N(CCCOc2ccc(Br)cc2Cl)C1=O | 2% | 10% | 0.5% | 8% | 7 | -0.6 | -5
